# Screens as filed in PubChem BioAssay.
# ugtP null kill: growth inhibition of ugtP-null S. aureus, primary screen, RN4220 ugtP deletion, OD600. 16 h; some inactives read as strong as hits. growth inhibition, % (test concentration not listed). 0.54% of 330,000 active. AID 1259309, 2017;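 active = z-score under -3 and OD600 up to 0.15 on both plates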;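 note: plate controls were untreated wells for no effect and antibiotic for full effect; wells of about 80 µL received 100 nL stock; the first replicate is given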
# BJeLR lethal: MLPCN primary cell-based screen for lethality selective to Ras in HRASV12 cells; 0.17% of 300,000 active; inhibition, % (concentration not given with the values); BJeLR (HRASV12) viability, CellTiter-Glo ATP luminescence, 48 h; reference of the scale not given here;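 active = replicate mean above 50%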;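 note: 50 nL library stock added to about 25 µL; numbers are from one replicate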
# PrP 5UTR inh: inhibition of PrP 5' UTR reporter expression | cell-based PrP 5' UTR mRNA reporter, plate reader | inhibition, % (test concentration not listed) | 0.35% of 340,000 active | AID 488862, 2010;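 active = every replicate at 50% or more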;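 note: 0 = median of the neutral control wells; tested in H4 reporter cells; numbers are from one replicate; inactives centre near -14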
# Mtb hypoxia inh: PubChem AID 1159583 | fluorescence inhibition, % (concentration not given with the values) | M. tuberculosis hypoxia-regulated fluorescent reporter, fluorescence | 0.1% of 300,000 active;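 active = 35 to 45% if threefold the growth effect, above 45% if 1.5-fold the growth effect; inactive = the rest, general growth blockers included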;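 note: wells of about 50 µL received 100 nL stock; 0% = vehicle wells and 100% = reference inhibitor wells; whole bacteria with a GFP reporter of the hypoxia response; strong numbers were not always called active; many hits fall short of the cut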
# RN4220 kill: growth inhibition of S. aureus RN4220, primary screen, OD600. AID 1259311, 2017. 16 h. 0.33% of 330,000 active. inhibition, % (concentration not given with the values);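 active = z-score of -3 or lower and OD600 up to 0.18 on both plates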;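 note: plate controls were untreated cells for no effect and reference antibiotic for full effect; stock transfer was 100 nL into about 80 µL; one replicate is shown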
# Autofluor counter: flagged as autofluorescent in microsphere protease counterscreen; compound autofluorescence counterscreen, microsphere flow cytometry; hits give high values; fluorescence intensity (concentration not given with the values); 3.1% of 360,000 active; AID 624483;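 active = at least 3 SD above the mean of all compounds, about 16000 in these data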;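 note: 100 nL of 1 mM stock went into each well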
# Mtb hypoxia inh growth: recorded beside Mtb hypoxia inh, whose call it bears; growth inhibition, %; measured here: M. tuberculosis growth (absorbance);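 0% = vehicle and 100% = reference antibiotic; read after six days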
# * = called active by the depositor; nt = no result given; & = joins results of further samples.
SMILES,ugtP null kill,BJeLR lethal,PrP 5UTR inh,Mtb hypoxia inh,Mtb hypoxia inh growth,RN4220 kill,Autofluor counter
Cc1c(Cl)cccc1NC(=O)CCN1CCCC(C)C1 (stereo unspecified),5.3,-1.6,-13.9,3.2,3.2,2.6,11109
COc1ccc(NS(=O)(=O)c2cc(NC(=O)c3cccc(OCc4c(C)noc4C)c3)ccc2OC)cc1,-6.7,6.6,-29.7,2.1,0.1,-3.4,2272
CCCn1nc(NC(=O)COC)c2cc3cc(C)ccc3nc21,1.4,-0.2,-13.7,-9.4,-16.8,4.5,3131
O=c1[nH]c2ccc(S(=O)(=O)N3CCN(c4ccccc4F)CC3)cc2s1,100.6*,-13.0,-9.3,-5.3,1.3,-12.2,4487
COc1ccc(NC(=O)c2ccc(NC(=O)COC(=O)CC(NC(=O)c3ccccc3Cl)c3ccccc3)cc2)cc1 (stereo unspecified),-1.7,7.5,-10.1,7.4,7.4,3.4,2631
Cc1ccc(-n2nnnc2SCC(=O)Nc2sc(C)c(C)c2C#N)cc1C,-1.4,-3.2,-3.5,12.0,6.5,13.3,8086
CN1C(=O)C(=Cc2ccccc2Oc2ccc(Cl)c(F)c2)C(=O)N(C)C1=O,-1.4,-4.0,-13.6,nt,nt,0.1,4294
COc1ccc(NC(=O)CN2CCC(Cc3ccccc3)CC2)cc1S(=O)(=O)N1CCOCC1,2.0,2.4,-9.5,4.4,21.7,2.9,2160
CC1CC1C(=O)OCC(=O)Nc1ccc(N=Nc2ccccc2)cc1 (stereo unspecified),2.1,0.9,-76.4,3.7,12.0,-4.4,2211
CC(=O)Nn1cnc2c(c1=O)C1(CCCCC1)Cc1ccccc1-2,7.1,-4.0,-53.4,nt,nt,-1.7,2336
COc1ccc([N+](=O)[O-])cc1NS(=O)(=O)c1ccc(C(=O)N2CCCC2)cc1,2.7,nt,-0.3,4.4,-5.0,8.7,3744
CC(=O)NC1(C(=O)O)CCCC1,15.2,-12.4,-7.1,-3.5,9.4,1.7,3329
COc1cccc(C2=NOC(C(=O)Nc3c(C)n(C)n(-c4ccccc4)c3=O)C2)c1 (stereo unspecified),5.0,-0.1,-19.2,5.9,8.0,12.7,4627
O=C(NN=Cc1cccc(O)c1)c1cc(-c2ccccc2)nc2ccccc12,5.1,nt,nt,3.5,3.2,0.8,nt
O=C(O)CCc1[nH]c2ccccc2c1Sc1ccccc1,15.5,-2.3,-9.7,16.9,1.3,20.8,3803
CC(Cl)C(=O)c1c(N)n(C)c(=O)n(C)c1=O (stereo unspecified),14.9,5.9,-19.3,7.8,5.4,6.6,8357
Cc1ccc(S(=O)(=O)NCc2ccccc2)cc1C(=O)N(C)CC(=O)Nc1c(Cl)cccc1Cl,3.2,-13.9,-8.3,3.2,2.4,1.0,6603
CC(C)c1ccc(NS(=O)(=O)c2ccc3[nH]cc(C(=O)N4CCC(C(N)=O)CC4)c(=O)c3c2)cc1,0.4,-3.3,-11.9,4.6,-2.1,4.0,3337
Cc1cccc(NC(=O)Nc2c(C)n(C)n(-c3ccccc3)c2=O)c1,7.3,-3.1,-22.1,-0.1,9.4,-1.5,4203
S=C(Nc1ccccc1)N1CCN(C(=S)Nc2ccccc2)CC1,2.0,0.3,nt,8.5,2.0,-0.6,nt
Cc1ccc(C)c2[nH]c(=O)c(CCNC(=O)CC(C)(C)C)cc12,7.2,-11.1,-5.3,-0.4,1.0,1.3,5145
CCCS(=O)(=O)Nc1c(C(=O)O)[nH]c2ccc(OC)cc12,6.4,-0.4,-12.0,-10.5,1.5,4.6,4364
O=C1COc2ccc(C(=O)COC(=O)c3ccccc3[N+](=O)[O-])cc2N1,-0.3,3.2,-8.7,-2.4,3.9,0.9,5282
Cc1cc(C)nc(N2CCC(C(=O)NCCc3ccccc3)CC2)n1,3.2,-8.7,-29.4,8.7,6.7,2.8,5841
Cc1cc(C)c2nc(SCC#N)cc(C)c2c1,34.7,-3.1,-26.5,3.2,3.6,7.0,4275
Oc1ccc(C=Nc2ccccc2-c2nc3ccccc3[nH]2)cc1,9.9,9.9,-25.6,-6.6,-4.4,4.8,2410
CN(C)c1ccc(CN(C(=O)/C=C/c2ccco2)C2CCS(=O)(=O)C2)cc1 (stereo unspecified),8.7,5.1,nt,-2.5,-5.0,3.0,3146
O=C1c2ccc(-c3ccc4c(c3)C(=O)N(CCCO)C4=O)cc2C(=O)N1CCCO,-1.8,-11.0,-71.0,6.0,6.9,5.9,3453
Cc1ccc(NC(=O)c2cncc(Br)c2)c(O)c1,16.9,10.8,-42.2,12.7,3.0,24.1,4348
Cc1noc(C)c1COC(=O)CCCc1c[nH]c2ccccc12,6.7,-8.7,-3.7,nt,nt,4.4,4482
COc1cc(C=NNC(=O)c2ccc(C)nc2)ccc1OC(=O)c1ccc2c(c1)OCO2,-7.7,nt,nt,9.2,-7.4,4.0,nt
Cc1[nH]c2ccccc2c1C=NNC(=O)Cn1nnc(-c2ccccc2)n1,-11.4,nt,nt,0.6,-3.3,-1.0,nt
O=C(c1ccccc1)N1CCN(C2CCCCC2)CC1,-2.6,-0.8,-24.4,6.8,7.1,-14.0,2904
CCn1c(SCC(=O)Nc2cc(C)on2)nnc1-c1cccc(C)c1,7.7,2.7,-47.5,12.7,4.1,3.6,6057
CN(C)C(=Nc1ccccc1)P(=S)(N(C)C)N(C)C,0.2,3.4,-30.2,7.2,4.9,5.3,4362
Cc1c(F)cccc1NC(=O)CSCC(=O)Nc1ccccc1,-4.0,-0.3,-10.6,nt,nt,3.3,2417

# Reprinted from the part before: 4 entries, then new ones.
SMILES,ugtP null kill,BJeLR lethal,PrP 5UTR inh,Mtb hypoxia inh,Mtb hypoxia inh growth,RN4220 kill,Autofluor counter
O=C(c1ccccc1)N1CCN(C2CCCCC2)CC1,-2.6,-0.8,-24.4,6.8,7.1,-14.0,2904
CCn1c(SCC(=O)Nc2cc(C)on2)nnc1-c1cccc(C)c1,7.7,2.7,-47.5,12.7,4.1,3.6,6057
CN(C)C(=Nc1ccccc1)P(=S)(N(C)C)N(C)C,0.2,3.4,-30.2,7.2,4.9,5.3,4362
Cc1c(F)cccc1NC(=O)CSCC(=O)Nc1ccccc1,-4.0,-0.3,-10.6,nt,nt,3.3,2417
Cc1ccsc1CN1CCN(c2ccccn2)CC1,-10.4,-16.4,-18.7,-2.9,12.9,-2.0,21639*
O=C(c1ccc(F)cc1)N1CCN(c2cc(=O)[nH]nc2-c2ccccc2)CC1,14.2,-13.2,-26.1,6.4,7.2,-0.9,7252
CC(=O)c1cc(CN2CCN(CC=C(C)C)C(CCO)C2)cs1 (stereo unspecified),-2.6,0.7,-15.8,2.7,2.9,-3.8,4386
O=C(Oc1nsnc1N1CCOCC1)N1CCOCC1,5.1,-2.2,-18.3,8.0,4.7,2.3,8274
Nc1ncc2[nH]cnc2n1,-8.3&-5.5,-8.5&-15.5,-13.7&1.2,1.6&-0.2,-11.2&-5.7,2.0&5.4,5711&4343
N#CCC(=O)NN=Cc1c2ccccc2cc2ccccc12,4.0,nt,nt,2.1,4.9,1.0,nt
O=C(c1cccn(Cc2ccc(C(F)(F)F)cc2)c1=O)N1CCOCC1,6.4,0.8,-10.3,14.5,3.9,-0.9,3975
COc1ccc2[nH]c(=O)c(CN(C)C(=O)C3CCCCC3)cc2c1,-9.8,5.3,-27.7,5.2,0.5,-8.7,3251
CN(C(=O)c1cccc(NC(=O)Cc2cccc([N+](=O)[O-])c2)c1)C1CC1,-0.7,nt,-13.5,-5.0,8.1,1.5,3757
CC(C)N1C(=O)S/C(=C/c2ccc(Sc3nc4ccccc4[nH]3)o2)C1=O,-1.0,6.2,-16.1,7.3,2.0,-10.5,2527
CCCc1nc2ccccc2c(NC(=O)CN(CC)CC)c1CC,-2.9,-1.8,-24.3,7.8,14.9,0.5,4157
CCc1ccc(OC(=O)c2cncc(Br)c2)cc1,2.6,1.5,-9.5,3.6,14.7,4.3,3540
COc1ccccc1-c1noc(CCC(=O)NC2CCCCC2)n1,8.6,8.5,-17.5,-0.3,-4.6,1.5,nt
O=C1c2ccccc2C(=O)N1Cc1ccc2c(c1)OCO2,7.7,-5.2,-7.3,4.4,1.0,6.8,8057
CC1(C)Cc2c(c(-c3ccccc3)[nH]c(=O)c2C#N)CO1,-3.4,-4.7,-15.3,6.4,7.1,-15.6,3253
COc1cccc(-n2c(SCC(=O)Nc3sc4c(c3C(N)=O)CCC4)nc3ccccc3c2=O)c1,-21.7,2.4,-10.1,4.6,-0.8,0.1,16606*
COC(=O)c1ccc(C(=O)OC)c(NC(=O)CS(=O)(=O)Cc2ccccc2)c1,1.2,2.1,-42.1,nt,nt,2.4,3313
Clc1nc(NC2CCCC2)nc(N2CCOCC2)n1,6.7,-0.6,-12.3,11.2,7.0,5.4,4099
COc1cc(/C=N/Nc2ccc(F)cc2F)cc(OC)c1OC,nt,5.3,-8.5,nt,nt,nt,2356
Cc1cc(C)c(C#N)c(SCc2ccccc2C)n1,10.7,-5.7,-13.1,6.8,12.2,-2.6,2025
COc1cc(N)c(Cl)cc1C(=O)OCC(=O)Nc1cccnc1Cl,-0.3,-6.6,-28.9,3.5,8.8,1.5,nt
CCNc1c(N)c(=O)oc2ccccc12,3.0,-0.1,-7.9,nt,nt,5.9,3806
CC1CN(C(=O)C(Sc2ccccc2)c2ccccc2)CC(C)O1 (stereo unspecified),4.9,-4.0,-4.6,-0.6,13.9,13.7,2512
COC(=O)c1[nH]nc(C(=O)OC(C)(C)C)c1-c1ccccc1,-7.1,-6.4,-3.0,6.0,9.8,4.0,2104

# Among those listed so far, these contain bromine:
SMILES,ugtP null kill,BJeLR lethal,PrP 5UTR inh,Mtb hypoxia inh,Mtb hypoxia inh growth,RN4220 kill,Autofluor counter
Cc1ccc(NC(=O)c2cncc(Br)c2)c(O)c1,16.9,10.8,-42.2,12.7,3.0,24.1,4348
CCc1ccc(OC(=O)c2cncc(Br)c2)cc1,2.6,1.5,-9.5,3.6,14.7,4.3,3540

# (next part)
SMILES,ugtP null kill,BJeLR lethal,PrP 5UTR inh,Mtb hypoxia inh,Mtb hypoxia inh growth,RN4220 kill,Autofluor counter
O=C(Cc1ccccc1)OCc1ccccc1,-2.0,nt,-9.5,16.3,8.8,0.7,5807
c1ccc(N2CCN(c3ncccn3)CC2)cc1,6.7,-6.3,-14.7,nt,nt,3.1,2235
CC(C)C[C@H](NC(=O)N1CCn2c1nc1ccccc12)C(=O)NCC1CCCO1 (stereo partly specified),5.4,9.7,-0.2,10.5,7.1,4.1,6109
OC/C(Br)=C(\Br)CO,5.4,nt,7.8,5.5,12.1,1.7,4372
CCCCn1c(=O)[nH]c(=O)c2c1nc(-c1cc3c(cc1Br)OCO3)n2C,-3.0,1.0,-22.4,6.4,1.6,0.0,5947
CCOC(=O)c1cccc(NC(=O)/C=C/c2ccc([N+](=O)[O-])cc2)c1,2.3,1.8,3.1,8.8,8.0,3.2,2216
Cc1ccc(-c2nn(-c3ccc(F)cc3)cc2C(=O)NCC2CCCO2)cc1 (stereo unspecified),1.4,-3.8,-52.5,1.8,6.9,-2.3,5714
CCOC(=O)CC1C(=O)NCCN1Cc1cccs1 (stereo unspecified),3.8,-4.1,-8.8,3.5,7.3,2.4,2496
COC(=O)C1CN(C(=O)COc2cccc(C)c2C)c2ccccc2O1 (stereo unspecified),5.1,-4.6,-22.9,12.5,8.1,8.2,3446
C/C(=N\NC(=O)C(C)n1nc(C)c([N+](=O)[O-])c1C)c1ccccc1O (stereo unspecified),nt,26.1,-1.5,nt,nt,nt,10138
CCCCNc1c(-c2ccc(-c3ccc(C(C)=O)cc3)c(OC)c2)nc2cc(C)ccn12,-10.1,nt,-16.2,5.6,14.8,2.3,4168
COc1ccc(-c2ccc3c(c2)S(=O)(=O)c2cccc(C(=O)NCC4CCCO4)c2C3=O)cc1OC (stereo unspecified),9.2,nt,nt,2.6,4.5,11.4,nt
CSc1ccccc1NC(=S)NC1CCCC1,2.3,-5.4,-23.5,13.9,-0.5,2.3,6199
CC(=O)Nc1ccc(S(=O)(=O)NCc2ccc(C)cc2)cc1,-2.2,2.2,2.3,-6.2,6.4,2.2,4322
CCOC(=O)N1CCC(N(CCN(C)C)C(=S)Nc2ccccc2C)CC1,-1.7,-7.0,-11.9,-5.1,2.7,2.6,2018
CC(=O)c1ccc(NC(=S)Nc2cccc3ccccc23)cc1,1.0,11.3,-17.3,-5.7,2.4,-0.9,5039
CNS(=O)(=O)c1cnccc1N1CCN(c2cccc(C(F)(F)F)c2)CC1,-4.6,4.8,-24.6,nt,nt,7.0,2736
COCCNCC(=O)N1CCCCCC1,4.5,1.7,-4.7,1.8,5.5,16.0,4193

# Rows are unselected (roughly 4% active in at least one column).
